Assay outcomes as filed in PubChem BioAssay.
TsaE inh: qHTS Assay for Inhibitors of YjeE; tRNA threonylcarbamoyladenosine biosynthesis protein TsaE (Escherichia coli (strain …; purified YjeE, fluorescence polarisation of a bound ADP probe; Potency, µM; 71,000 tested, 0.05% active; active = well fitted falling curve; inconclusive = weaker or top-dose-only fall, or a rising curve; inactive = flat or poorly fitted curve;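 also: top concentration of the series not given in the record; excess ADP was the control for the full effect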
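Purified YjeE (10 uM) with BODIPY Texas Red-labeled ADP probe (2 uM); compounds pin-transferred, 15 min at room temperature. Binding inhibition read as decreased fluorescence polarization; ADP titration as control.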
PK Bst: Pyruvate Kinase | partly purified Bacillus stearothermophilus pyruvate kinase, luminescence ATP production; ribose 5-phosphate activator present at AC10 | Potency, µM | 51,000 tested, 1.2% active; in the data active means potency below about 11 µM; inconclusive means mostly about 12 µM to 25 µM; inactive means weaker than that;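 the screen sought inhibitors and activators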;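 also: potency is read from the fitted curve at half-maximal effect; scaled between full activation by ribose 5 phosphate and full inhibition by luteolin; about four in five hits inhibit and the cells do not say which; series up to 57 µM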
An asterisk follows results filed as active; i = inactive; ? = inconclusive; · = not tested or not shown.

SMILES	TsaE inh	PK Bst
Cc1ccc(NC(=O)NCCCN2CCOCC2)cc1	i	>57
Cc1cc(O)c(-c2cc(C(=O)NCc3ccc4c(c3)OCO4)[nH]n2)cc1C	i	>57
CC1Cn2c(nnc2-c2cc3ccccc3cc2O)S1 (centres undefined)	i	>57
CCc1ccccc1S(=O)(=O)Cc1ccc(C(=O)NC(C)C)o1	i	·
Cc1ccc(N2CCN(c3ccc(C)cc3)C2c2ccncc2)cc1	i	>57
CCOC(=O)c1c(NC(=O)CSc2n[nH]c(-c3ccco3)n2)sc(C)c1C	i	>57
C[C@@H]1C[C@@]2(C)Oc3ccccc3[C@H]3OC[C@]1(COC(=O)Nc1ccccc1)[C@@H](C)[C@@H]32	i	·
CCc1nc2ccccc2n1CC(=O)N1CCN(S(=O)(=O)c2cccc(C(F)(F)F)c2)CC1	i	>57
CC(=O)Nc1ccc(SCC(=O)N(CCC#N)c2ccc(C)cc2)cc1	i	>57
CSC1=NC2(CCCCC2)C2=C(CCCC2)N1	i	>57
Oc1ccc(N2CCN(c3ncnc4sc5c(c34)CCC5)CC2)cc1	i	·
O=C(CCNS(=O)(=O)c1ccc(Br)cc1)NCc1ccc2c(c1)OCO2	i	>57
Cc1ccc(C)c(-n2c(SCC(=O)Nc3nnc(C)s3)nnc2-c2ccoc2C)c1	i	>57
O=C1N=C(N2CCOCC2)S/C1=C1\C(=O)N(Cc2ccccc2)c2ccc(Br)cc21	i	>57
CCC1CCCCN1S(=O)(=O)c1ccc(C(=O)Nc2nnc(-c3ccccc3Cl)o2)cc1 (centres undefined)	i	>57
CC(=O)OCC(=O)[C@@]1(O)CC[C@H]2[C@@H]3CCC4=CC(=O)CC[C@]4(C)[C@H]3[C@@H](O)C[C@@]21C	·	>11
O=C1OCCC1Sc1ncnc2sc3c(c12)CCC3 (centres undefined)	i	·
Cn1cnc2c(NCc3ccccc3)nc(NCCO)nc21	i	·
COc1ccc(C2C(C#N)=C(N)OC3=C2C(=O)CC(C)C3)c(OC)c1OC (centres undefined)	i	·
O=C(N1CCOCC1)N(Cc1ccccc1)c1ccccn1	i	>57
COc1ccc(C2C(C(=O)NCc3ccccn3)c3ccccc3C(=O)N2C)cc1OC (centres undefined)	i	>57
COc1ccc(Cl)cc1C(=O)Nc1ccc2c(c1)OCO2	i	i
c1coc(CSCc2cn3cccnc3n2)c1	i	>57
CN(Cc1ccccc1)C(=O)C1CCN(Cc2ccc(F)cc2)CC1	i	>57
CCOC(=O)C(C)c1nn(C)c(=O)c2ccccc12 (centres undefined)	i	·
O=C(O)/C(=C\c1ccccc1)Cc1ccccc1	i	·
CC1CCCN(C(=O)CSc2nnc(-c3cccnc3)n2C2CCCCC2)C1 (centres undefined)	i	>57
CC(NC(=O)c1cc(-c2ccc(Br)cc2)on1)c1ccccc1 (centres undefined)	i	>57
CCCCc1nc2c(=O)[nH]c3ccccc3c2o1	i	·
Cn1ncc2nnn(-c3ccccc3)c(=O)c21	·	>26
CCCC1(C(=O)OCC)NC(c2ccc(N(C)C)cc2)C2C(=O)N(c3ccccc3)C(=O)C21 (centres undefined)	i	>57
Cn1c(SCc2cc(=O)n3cc(Br)ccc3n2)nnc1C1COc2ccccc2O1 (centres undefined)	i	>57
Cc1cc(C)nc(N2CCCC(C(=O)Nc3ccc4nc(C)c(C)nc4c3)C2)n1 (centres undefined)	i	>57
Cn1c(SCC(=O)Nc2ccc3c(c2)oc2ccccc23)nnc1-c1ccccc1	i	>57
CCCc1nc(-c2ccc(-c3ccc(F)cc3)cc2)no1	i	·
O=C(Nc1ccccc1)N(CCCN1CCOCC1)Cc1ccccc1F	i	>57
Cc1cc(C)c2[nH]c(=O)c(C(c3nnnn3Cc3ccc4c(c3)OCO4)N3CCCCC3)cc2c1 (centres undefined)	i	>57
COc1ccc(OC)c2sc(N3CCN(c4ccccc4)CC3)nc12	i	?
O=C(Nc1ccccn1)c1cccc(S(=O)(=O)N2CCCCC2)c1	i	·
Cn1c(=O)[nH]c(=O)c2c1ncn2CCN1CCCCC1	i	>57
CCOC(=O)c1cccc(NC(=O)CCc2nc(-c3ccccc3F)no2)c1	i	>57
CCCc1nc(C)c(-c2ccc(OC)c(OC)c2)c(=O)[nH]1	i	·
O=C(Nc1cccnc1)C1CC(c2ccc(Cl)c(Cl)c2)=NO1 (centres undefined)	i	i
COC(=O)c1ccc(CN2C(=O)c3ccccc3S2(=O)=O)cc1	i	>57
c1ccc(-c2ccc(N3CCCC4(CCNCC4)C3)cc2)cc1	i	·
CCOCCCNC(=O)C1CCN(S(=O)(=O)N2CCCCC2)CC1	i	>57
CC(C)Sc1nnc([C@H](C)NC(=O)OC(C)(C)C)o1	i	>57
Fc1ccc2[nH]c3c(N4CCN(Cc5ccc6c(c5)OCO6)CC4)ncnc3c2c1	·	>26

Part of the list above, with values under each structure:
Sequence of screens – TsaE inh, PK Bst
CCOCCCNC(=O)C1CCN(S(=O)(=O)N2CCCCC2)CC1
  i, >57
CC(C)Sc1nnc([C@H](C)NC(=O)OC(C)(C)C)o1
  i, >57
Fc1ccc2[nH]c3c(N4CCN(Cc5ccc6c(c5)OCO6)CC4)ncnc3c2c1
  ·, >26

The listing picks up, repeating the 6 entries before the break.
SMILES	TsaE inh	PK Bst
O=C(Nc1cccnc1)C1CC(c2ccc(Cl)c(Cl)c2)=NO1 (centres undefined)	i	i
COC(=O)c1ccc(CN2C(=O)c3ccccc3S2(=O)=O)cc1	i	>57
c1ccc(-c2ccc(N3CCCC4(CCNCC4)C3)cc2)cc1	i	·
CCOCCCNC(=O)C1CCN(S(=O)(=O)N2CCCCC2)CC1	i	>57
CC(C)Sc1nnc([C@H](C)NC(=O)OC(C)(C)C)o1	i	>57
Fc1ccc2[nH]c3c(N4CCN(Cc5ccc6c(c5)OCO6)CC4)ncnc3c2c1	·	>26
O=C1CSC(c2cn(-c3ccccc3)nc2-c2ccccc2)N1Cc1ccco1 (centres undefined)	i	>57
COc1ccc(OC)c(-c2nnc(SCC(=O)N3CCCc4ccccc43)o2)c1	i	>57
Cc1ccc(S(=O)(=O)N2CCN(C(=O)c3ccccc3)C2C(C)C)cc1 (centres undefined)	i	>57
O=C(c1cnccn1)N1CCC2(CC1)CN(C(c1ccccc1)c1ccccc1)C2	i	·
CN1CCN(c2ncc3ncc(=O)n(-c4ccccc4)c3n2)CC1	i	·
CCOC(=O)C1C(=O)C(C(=O)OCC)C(c2cccnc2)NC1c1cccnc1 (centres undefined)	i	>57
COc1ccc(C(=O)NCc2ccccc2OC)cc1	i	>57
Cc1ccc(-c2cc(C(=O)NC3=NCCS3)c3cc(Br)ccc3n2)o1	i	>57
COc1ccc(-n2nnc3c(=O)n(CC(=O)OCc4ccccc4)cnc32)cc1	i	·
COC(=O)NCc1ccc(S(=O)(=O)N2CCOCC2)cc1	i	>57
CCOCCOC(=O)CCSc1n[nH]c(=O)[nH]c1=O	i	>57
COC(=O)COc1ccc(S(=O)(=O)NC2CCCCCC2)cc1	i	>57
COc1ccc(OC)c2sc(NC(=O)C3CC3)nc12	i	·
CC1=C(/C=C/C(C)=C/C=C/C(C)=C\C=O)C(C)(C)CCC1	i	·
CN(CCOc1ccc(C[C@H](Nc2ccccc2C(=O)c2ccccc2)C(=O)O)cc1)c1ccccn1	i	·
CNC(=O)CN1C(=O)C2C3C=CC(C3)C2C1=O (centres undefined)	i	>57
CCOP(=O)(c1ccccc1)C1(C#N)CCCC1 (centres undefined)	·	>26
O=Cc1c(Cl)cccc1Cl	i	·
CCOC(=O)C1C2C=CC3(CN(Cc4cccs4)C(=O)C13)O2 (centres undefined)	i	>57
COc1ccc([C@@H]2Sc3ccccc3N(CCN(C)C)C(=O)[C@@H]2OC(C)=O)cc1	i	>26
CSCC[C@H](NC(=O)Nc1cccc(C(F)(F)F)c1)C(=O)O	i	>57
CCOC(=O)N1CCN(C(=O)CNC(=O)Cc2ccc(Cl)cc2)CC1	i	>57
Cn1cnnc1-c1cccc(NS(=O)(=O)c2ccc(N3CCCC3=O)cc2)c1	i	>57
N#CCCSc1ccccc1NC(=O)c1ccc(S(=O)(=O)N2CCCC2)cc1	i	>57
CC(C)c1nnc(NC(=O)c2ccc(N3C(=O)CCC3=O)cc2)s1	i	·
COc1ccc(C2(C(=O)N3CCOCC3)CCOCC2)cc1OC	i	·
CCOC(=O)c1cccc(NC(=O)C2CCCN(S(=O)(=O)c3c(C)n[nH]c3C)C2)c1 (centres undefined)	i	>57
COc1cccc(C2CC(c3ccccc3Cl)n3nnnc3N2)c1 (centres undefined)	i	i
Cn1c(NC(=O)c2cccnc2)nc2ccccc21	i	·
Cc1ccc(-c2nnc3n2N=C(c2ccccc2Br)CS3)cc1	i	?
CCn1c(SCC(=O)Nc2nc(C)cs2)nnc1-c1cccnc1	i	>57
CCOC(=O)NC(Nc1nnc(C)s1)(C(=O)OCC)C(F)(F)F (centres undefined)	i	>57
COc1cc(C(=O)NCCC2=CCCCC2)cc(OC)c1OC	i	·
CCc1nc2ccccc2n1CCC(C)C	i	>57
Cc1ccccc1Cn1c(CN2CCN(C(=O)c3ccco3)CC2)nc2c1c(=O)n(C)c(=O)n2C	i	·
C=CCc1cc(C)ccc1OCC(O)CN1CCN(c2ccccc2)CC1 (centres undefined)	i	>57

Single records (already shown):
CCOC(=O)c1cccc(NC(=O)C2CCCN(S(=O)(=O)c3c(C)n[nH]c3C)C2)c1 (centres undefined) across the screens: TsaE inh: i; PK Bst: >57
COc1cccc(C2CC(c3ccccc3Cl)n3nnnc3N2)c1 (centres undefined) across the screens: TsaE inh: i; PK Bst: i

Further records:
SMILES	TsaE inh	PK Bst
CCCSc1nsc(SCCC)c1C(N)=O	i	>57
Cc1cc(Nc2nc3c(c(=O)n(C)c(=O)n3C)n2C)n(-c2ccc(Cl)cc2)n1	i	>57
c1ccc(N2CCN(c3nc4ccccc4n4nnnc34)CC2)cc1	i	i
Cc1ccc(NC(=O)C2C3C=CC4(CN(Cc5cccnc5)C(=O)C24)O3)cc1 (centres undefined)	i	·
COc1cccc(Nc2ncc3nc(-c4ccccc4)c(=O)n(Cc4cccs4)c3n2)c1	i	·
Cc1cccc(CNc2nc(-c3cccc(NS(C)(=O)=O)c3)nc3ccccc23)c1	i	·
CCOC(=O)c1c(N)sc2c(O)c(Br)ccc12	i	·
CCOC(=O)CNc1c(-c2ccc(F)cc2)nc2cnccn12	i	>57
Cc1nnc(NC(=O)CSc2nnc(CCc3nc4ccccc4[nH]3)n2C)s1	i	>57
CCNC(=O)CC1C(=O)N(c2ccc(OC)cc2)C(=O)N1Cc1ccc(OC)cc1 (centres undefined)	i	>57
CCOc1ccc(C(=O)NCC2CCCO2)cc1 (centres undefined)	i	>57
O=C(CSc1nc(O)c(C2CCCCC2)c(=O)[nH]1)NCC1CCCO1 (centres undefined)	i	>57
Cc1nn(-c2ccccc2)c2sc(C(=O)N(CC(=O)NC3CCCC3)Cc3ccco3)cc12	i	>57
CCN1C(=O)C(CC(=O)NC2CCCCC2)N(CC)C1=O (centres undefined)	i	>57
O=C(CCSc1nc(-c2ccc3c(c2)OCO3)cc(C(F)(F)F)n1)NCc1ccco1	i	·
COc1ccc(OC)c(-c2nnc(SCC(=O)N3CCOCC3)o2)c1	i	>57
COc1ccc(NC(=O)C2c3cc(OC)c(OC)cc3C(=O)N(C)C2c2cccnc2)cc1OC (centres undefined)	i	>57
Cc1csc(NC(=O)Nc2ccc(Cl)cc2)n1	i	>57
O=C1CCC(=O)N1CNc1cccnc1	i	·
Cc1cc(C)nc(/N=C/c2c(O)n(C)c(=O)n(C)c2=O)n1	i	>57
CCc1ccc(N2CC(C(=O)Nc3nccs3)CC2=O)cc1 (centres undefined)	i	>57
Cn1c(SCC(=O)c2ccc3c(c2)OCO3)nnc1C1COc2ccccc2O1 (centres undefined)	i	>57
CC(C)C[C@@H](CC(=O)N[C@@H](CCC(=O)O)CC(=O)O)NC(=O)[C@@H]1CCCC[C@H]1NC(=O)C[C@H](CCCN)NC(=O)C[C@H](Cc1c[nH]c2ccccc12)NC(=O)[C@@H]1CCCC[C@H]1N	i	·
O=C1N=c2ccccc2=C1c1sc(=S)n(CC2CCCO2)c1O (centres undefined)	i	·
COc1cc(OC)c(NC(=O)CS(=O)(=O)Cc2nc(-c3ccc(C)cc3)oc2C)cc1Cl	i	·
CCOc1ccc(/C(O)=C2/C(=O)C(=O)N(CCCn3ccnc3)C2c2cccs2)cc1Cl (centres undefined)	i	>57
COc1ccc(OC)c(NC(=O)CN2CCN(C(=O)c3ccco3)CC2)c1	i	>57
COc1ccc(OC)c(NC(=O)c2c(NC(=O)CNCc3ccco3)sc3c2CCC3)c1	i	·
C=CCn1c(SCn2nnc3ccccc3c2=O)nnc1-c1ccc(Cl)cc1	i	?
COC(=O)C1=C(CSc2nncn2C)NC(=O)NC1c1cc(C)ccc1C (centres undefined)	i	>57
CCC(C)OC(=O)c1[nH]c2c(c1C)C(=O)CC(c1ccc(N(C)C)cc1)C2 (centres undefined)	i	·
NC(=O)c1ccc(-n2nnnc2SCc2ccccc2)cc1	i	>57
Cc1cc2oc(C(=O)N(Cc3ccco3)C3CCS(=O)(=O)C3)cc(=O)c2cc1Cl (centres undefined)	i	>57
Cn1cc(-c2nc3cnc(Oc4ccccc4)nc3n(C)c2=O)c2ccccc21	i	·
O=S(=O)(NCCc1cn2ccccc2n1)c1cccs1	i	·
COc1cccc(N2CCN(C(=O)c3ccc(N4C(=O)NC5CC4(C)Oc4ccccc45)cc3)CC2)c1 (centres undefined)	i	>57

The list is partial (hit frequency here may not be typical).
